KCNQ2 pot – enhances the rat KCNQ2 potassium channel. O88943. CHO-K1 KCNQ2, FluxOR thallium flux fluorescence; hits give high values. B-score at 10 µM. actives 0.54% (n = 310,000). AID 2239;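 active means fluorescence ratio B-score at least 3 SD of library B-scores, with initial fluorescence B-score within 3 SD, cut at about 5.3 in these data; same plate scores as AID 2156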;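 further: B-score of peak minus minimum over baseline fluorescence ratio after K+ and Tl+ stimulus; positive B-score means potentiation of KCNQ2 with more thallium influx and brighter signal; only the inactives scoring about 0 or higher are listed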
Target sequence (O88943 whole entry, looked up): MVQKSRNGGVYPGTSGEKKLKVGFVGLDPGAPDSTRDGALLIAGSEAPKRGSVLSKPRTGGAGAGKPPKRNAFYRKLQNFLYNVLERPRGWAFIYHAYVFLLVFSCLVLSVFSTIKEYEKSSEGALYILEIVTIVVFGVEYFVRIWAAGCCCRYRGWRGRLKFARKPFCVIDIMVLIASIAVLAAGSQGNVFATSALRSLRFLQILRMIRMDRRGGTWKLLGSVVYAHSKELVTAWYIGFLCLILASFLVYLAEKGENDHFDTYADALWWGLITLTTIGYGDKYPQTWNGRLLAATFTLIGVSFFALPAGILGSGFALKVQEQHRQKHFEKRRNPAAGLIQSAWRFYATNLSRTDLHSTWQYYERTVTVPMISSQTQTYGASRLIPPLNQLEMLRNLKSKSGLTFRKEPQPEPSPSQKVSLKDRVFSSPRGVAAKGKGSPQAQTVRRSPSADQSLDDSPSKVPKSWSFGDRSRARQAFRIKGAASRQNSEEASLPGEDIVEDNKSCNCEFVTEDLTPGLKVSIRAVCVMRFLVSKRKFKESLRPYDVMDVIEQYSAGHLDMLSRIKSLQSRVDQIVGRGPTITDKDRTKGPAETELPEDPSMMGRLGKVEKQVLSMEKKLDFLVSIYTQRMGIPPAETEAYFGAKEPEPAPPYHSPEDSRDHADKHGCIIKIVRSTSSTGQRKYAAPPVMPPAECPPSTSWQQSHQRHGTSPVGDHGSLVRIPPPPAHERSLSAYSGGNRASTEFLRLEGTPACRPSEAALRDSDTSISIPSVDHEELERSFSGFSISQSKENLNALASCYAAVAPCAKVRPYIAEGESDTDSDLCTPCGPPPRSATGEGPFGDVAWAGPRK
KCNQ2 pot baseline – further read-out of KCNQ2 pot, marked with its call; B-score; compound at 10 µM; measured here: initial fluorescence intensity artifact check;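 brightness before thallium and not channel activity; 0 = typical well and far values either way flag optical interference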
The depositor's hits bear a star. These rows are one share of the data; the hit share may differ from the screen's.

no.	canonical_smiles	KCNQ2 pot baseline	KCNQ2 pot
1	Cc1nnc(N2CCC(C(=O)N3CCCCC3)CC2)c2nn(-c3ccc(Cl)cc3)c(C)c12	-0.2	2.7
2	COc1cc(/C=N\NC(=O)c2ccc(-c3ccccc3)cc2)cc(OC)c1O	-0.53	0.24
3	CCCOc1ccc(CC(=O)NCC2(c3ccccc3)CCOCC2)cc1OC	-0.1	0.81
4	COc1cccc(CNC(=O)CN(c2cc(C)cc(C)c2)S(=O)(=O)c2c(C)noc2C)c1	0.96	0.17
5	Cc1ccccc1C(=O)Nc1scc(-c2ccc(Br)cc2)c1C(=O)O	-1.4	2.2
6	CCOc1cccc(-c2nnc3sc(-c4ccco4)nn23)c1	0.46	1.2
7	COc1cccc(CN2CC(C(=O)NCCn3ccc(C)n3)CCC2=O)c1 (centres undefined)	-0.09	0.51
8	COc1ccc(COC(=O)N/N=C(\C)CC(=O)Nc2c(C)cc(C)cc2C)cc1	-0.38	3.1
9	COc1cccc(NC(=O)CN(C)C(=O)COc2cc(C)ccc2Cl)c1	0.04	1.6
10	Cc1ccc(CNC(=O)c2ccc3c(c2)NC(=O)CS3)cc1	-1.2	0.51
11	COc1ccc(NC(=O)CSc2nnnn2Cc2ccccc2)cc1	-0.78	0.58
12	C/C(=N\NC(=O)c1ccc(OC2CCCC2)cc1)c1ccc(C)s1	2.5	0.68
13	CCOc1ccccc1/C=N/Nc1cc(C)nc2ccc(C)cc12	-0.29	0.29
14	Cc1c(OCC(=O)NCCCN2CCOCC2)ccc2c(-c3ccccc3)cc(=O)oc12	-0.01	0.53
15	CSc1nc2nc(-c3ccccc3)cc(C(F)(F)F)n2n1	-0.01	0.7
16	O=C(COC(=O)COc1ccccc1[N+](=O)[O-])NC1CCCC1	0.12	0.01
17	CCNc1nc(NCC)nc(-n2nc(C)cc2C)n1	1.3	0.23
18	OCCN(Cc1ccccc1)CC1CCCCC1	-0.06	0.31
19	CCN(C(=O)CSc1nnc(-c2ccccc2Cl)n1C1CCCC1)C1CCS(=O)(=O)C1 (centres undefined)	2.6	0.39
20	Nc1nnnn1/N=C/c1ccc(Br)cc1	0.48	0.53
21	CCOc1ccc2nc(C)cc(C(=O)O)c2c1	-0.93	0.4
22	Cc1ccc(C)c(S(=O)(=O)N2CCCC2CNC(=O)C(=O)NCC2CCCO2)c1 (centres undefined)	-0.49	0.41
23	Cc1ccc(-n2c(C)cc(/C=C3\NC(=O)NC3=O)c2C)c(C)c1	-0.75	0.47
24	CCN(CC)CCSc1nnc2c3cc(F)ccc3n(Cc3ccccc3)c2n1	-0.47	0.67
25	O=C(C1CC1)N1N=C(c2ccncc2)CC1(O)C(F)(F)F (centres undefined)	-0.36	1.3
26	O=c1c2ccccc2nc2n1CCN2Cc1ccc(Cl)cc1	-0.13	3.6
27	CC(NS(C)(=O)=O)C(c1cccs1)N1CCN(Cc2ccccc2)CC1 (centres undefined)	1.3	0.09
28	C[C@H](NC(=O)C1CCN(S(=O)(=O)c2ccccc2)CC1)C(=O)NCc1cccc(Cl)c1	-0.31	0.69
29	Cc1ccc(-c2nc(N)n(C(=O)c3cccnc3)n2)cc1	-0.7	0.01
30	COCc1cc(=O)n2c(-c3ccccc3OC)n[nH]c2n1	0.28	0.42
31	CCOC(=O)c1c(C)[nH]c(C(=O)COC(=O)CNC(=O)c2ccc(Br)cc2)c1C	0.52	0.81
32	CCC(=O)Nc1cc2c(cc1C(C)=O)OCCO2	-0.14	0.29
33	O=C(c1ccco1)N1CCN=C1SCc1cccnc1	0.08	0.66
34	CCOc1ccc(C(=O)COC(C)=O)cc1	1.5	0.46
35	COC(=O)Cc1nnc(NC(=O)C(C)C)s1	-0.05	0.64
36	O=C(NCC1CCCO1)c1ccc(CNS(=O)(=O)c2cccc(Cl)c2)cc1 (centres undefined)	-0.42	1.3
37	CSc1nnnn1-c1ccc(C(=O)OCC(=O)N2CCOCC2)cc1	-1.4	1.6
38	COc1ccc(CNC(=O)[C@H](C)N2C(=O)N3CCc4c([nH]c5ccccc45)[C@@]3(C)C2=O)cc1OC	1.6	0.05
39	CC(C)C[C@H](NS(=O)(=O)c1ccc(Br)cc1)C(=O)O	-1.6	0.39
40	CCCOc1ccc(C2c3c(oc4cc(C)c(C)cc4c3=O)C(=O)N2CCCN(C)C)cc1 (centres undefined)	-1.1	0.75
41	Cc1ccc(NC(=O)CSc2ccc3nnc(-c4cccnc4)n3n2)cc1	0.34	0.02
42	CC(C)C[C@H](NC(=O)OC(C)(C)C)C(=O)N1CCC(C(=O)N[C@@H](Cc2c[nH]c3ccccc23)C(=O)O)CC1	1.8	0.83
43	CCN(CC)/C(N)=N/c1nc(C)cc(C)n1	-0.28	0.16
44	COc1cc(NC(=O)c2ccccc2-n2cnnn2)cc(OC)c1	-0.32	1.4
45	O=C(CCCc1ccccc1)Nc1cccnc1Cl	0.74	1.3
46	c1ccc(CSCc2nc3ccccc3[nH]2)cc1	0.33	0.33
47	NC(=O)C(=O)NN=C1C2CC3CC(C2)CC1C3	0.05	1.3
48	COc1ccccc1CN1CC(C(=O)N(CCO)Cc2cccs2)CCC1=O (centres undefined)	1.3	0.68
49	Cc1ccc(C2C(C#N)=C(N)Oc3c2oc(CO)cc3=O)o1 (centres undefined)	-1.4	1.4
50	C=CCn1c(N)c(S(=O)(=O)c2cccs2)c2nc3ccccc3nc21	0.52	0.02
51	Cc1ccc(S(=O)(=O)N2CCOCC2)cc1NC(=O)CNCC1CCCCC1	-3.2	0.5
52	COc1ccc(C=NC(CO)C(O)c2ccc([N+](=O)[O-])cc2)cc1 (centres undefined)	-0.27	0.73
53	O=C(/C=C/c1ccco1)Nc1ccc(Oc2ccccc2)cc1	-0.17	1.1
54	COc1ccc(S(=O)(=O)N(C)CC(=O)Nc2ccc(C)cc2)cc1OC	-0.79	0.03
55	Cc1ccc(C(=O)CSc2cc(C)[nH]c(=O)n2)cc1	0.02	0.03
56	CC(=O)c1ccc(Nc2cc(C)nc3c(C)cc(C)cc23)cc1	0.95	1.3

Additional records:
no.	canonical_smiles	KCNQ2 pot baseline	KCNQ2 pot
57	CCOC(=O)Nc1ccc2c(c1)N(C(=O)CNC)c1ccccc1CC2	0.54	1.1
58	N#Cc1c(Cn2cncn2)nc(=O)n(-c2ccc(Cl)cc2)c1N	0.28	0.44
59	CC(C)(C)NC(=O)CCC1COc2ccccc2O1 (centres undefined)	0.99	0.42
60	O=C(CN1CCCc2ccccc21)N/N=C/c1ccccc1O	1.7	2.2
61	Cc1cccc(NC2=NC3(CCCCC3)N=C(N)N2)c1C	-0.32	1
62	CC[n+]1c(/C=C/Nc2ccccc2)oc2ccccc21	2	0.29
63	COc1ccc(C2CC(c3ccccc3)=NN2C(=O)c2ccc(F)cc2)cc1 (centres undefined)	1.5	0.66
64	Cc1cc(NC(=O)CCC(=O)N(CCC(C)C)C(C(=O)NC2CCCC2)c2ccccc2C)no1 (centres undefined)	-0.16	0.01
65	CC(=O)c1ccc(OCCCC(=O)NC2CCCCC2C)cc1 (centres undefined)	1.2	1.8
66	O=C(c1cnn2c(C(F)(F)F)cc(-c3ccco3)nc12)N1CCCCCC1	-2.4	0.19
67	Cc1ccccc1C(=O)NCCNC(=O)c1ccccn1	0.02	0.59
68	COc1ccc(CN2C(=NC(=O)C3CC3)SC3CS(=O)(=O)CC32)cc1 (centres undefined)	2.1	1.6
69	CC(C)(O)C(=O)N=Nc1c(O)[nH]c2ccccc12	0.02	0.04
70	CCOC(=O)N1CCN(Cc2nc3c(c(=O)n(C)c(=O)n3C)n2Cc2ccc(F)cc2)CC1	-0.37	0.8
71	CCC(=O)NC(Nc1sc2c(c1C(=O)OC)CCN(C)C2)(C(F)(F)F)C(F)(F)F	0.65	0.34
72	O=C(Nc1cccc(Cl)c1)Nc1ccon1	-0.75	0.03

The closing 2 entries of the section above are carried over, then new ones follow:
no.	canonical_smiles	KCNQ2 pot baseline	KCNQ2 pot
71	CCC(=O)NC(Nc1sc2c(c1C(=O)OC)CCN(C)C2)(C(F)(F)F)C(F)(F)F	0.65	0.34
72	O=C(Nc1cccc(Cl)c1)Nc1ccon1	-0.75	0.03
73	CN(C)C(=S)Nc1ccc(Cl)cc1	0.72	0.5
74	Cn1c(-c2ccc(F)cc2)cnc1NCc1ccc(F)cc1F	0.58	0.16
75	Fc1ccc(Nc2nnc(C(F)(F)F)s2)cc1	0.3	0.5
76	COc1ccc(CCN(C)C(=O)C2CCCN(C3CCN(Cc4ccccc4)CC3)C2)cc1OC (centres undefined)	-1.1	0.16
77	Cc1cc(Nc2cc(C)on2)n2ncnc2n1	0.76	0.29
78	CCNC(=O)C(=O)NCC1OCCCN1S(=O)(=O)c1cccs1 (centres undefined)	-0.25	1.1
79	O=C1CSC(=NC(=O)c2ccccc2)N1	0.15	0.69
80	CCc1nnc(NS(=O)(=O)c2ccc(NC(=S)NC(=O)c3ccc(OC)cc3)cc2)s1	-3.1	1.1
81	CC(=O)c1ccc(NC(=S)N2CC(C)CC(C)C2)cc1 (centres undefined)	-1.2	0.68
82	Cc1cc(SCC(=O)Nc2cccnc2Cl)nc2ccccc12	0.06	2.7
83	O=C1CCC(=O)N1c1nc2nc(-c3ccccc3)cc(-c3ccccc3)n2n1	1.5	0.77
84	O=C(CCOc1ccccc1)Nc1cccc(S(=O)(=O)Nc2ccccc2Cl)c1	0.07	0.43
85	COc1ccc(Br)cc1/C=N/Nc1ccc(Cl)c(C(=O)O)c1	-2	2.1
86	O=C(O)c1cnc(-c2ccccc2)nc1Sc1ccc(Cl)cc1Cl	0.3	4
87	COC(=O)Nc1ccc(S(=O)(=O)Nc2cccc3ccccc23)cc1	-0.3	0.24
88	CC1(C)CC(=O)C(C=NCCCO)=C(O)C1	1.1	0.49
89	O=C(NCc1ccc2c(c1)OCO2)C1CCN(S(=O)(=O)c2ccc(Br)s2)CC1	-2.8*	17*
90	NC(=O)Cc1ccc(C(=O)c2ccc(Cl)cc2Cl)s1	-0.35	0.6
91	O=C(NC1CCCC1)C(c1cccs1)N(C(=O)c1ccno1)c1ccccc1 (centres undefined)	0.07	0.3
92	CCOC(=O)C1CC(C)=C(C)CC1C(=O)O (centres undefined)	1.6	0.59
93	CCCNC(=S)Nc1ccc2nc(-c3ccccn3)c(-c3ccccn3)nc2c1	-1.9	0.22
94	COc1ccc(OC)c(N=c2oc3cc(O)ccc3cc2C(N)=O)c1	1.2	0.19
95	CC1(C)CC(=O)C(C=Nc2cccc(/N=C/C3=C(O)CC(C)(C)CC3=O)n2)=C(O)C1	-1.6	1.9
96	CC(=O)c1cn(CC(=O)Nc2cccc(C)c2C)c2ccccc12	-0.62	1.4
97	COc1ccc(S(=O)(=O)c2ccccc2)cc1NC(=O)c1c(F)cccc1F	0.2	0.36
98	NNC(=S)NCc1ccco1	0.02	0.29
99	COc1ccc(C(C(=O)NCC2CCCO2)N(C(=O)c2snc(C(N)=O)c2N)c2ccc(C)cc2)cc1OC (centres undefined)	-1.4	0.63
100	O=C(COC(=O)Cc1ccccc1F)NNC(=O)c1ccc(Cl)cc1	0.46	1.3
101	COc1ccc(C(=O)N(c2ccc(C)cc2)C2C=CS(=O)(=O)C2)cc1OC (centres undefined)	1.5	1.3
102	CC1(c2ccccc2)NC(=O)N(CC(=O)Nc2ccccc2C(=O)N2CCCCC2)C1=O (centres undefined)	0.13	0.1
103	Cn1nc(C(=O)OCC(=O)Nc2ccc3ccccc3c2)c2ccccc2c1=O	-1.1	0.02
104	CCNCCC(=O)N1c2ccccc2Sc2ccc(NC(=O)OCC)cc21	-1.6	0.24
105	CC1=C(C(=O)Nc2ccccc2C(=O)NC2CCCCC2)SCCO1	-0.19	0.33
106	Cc1cccc(NC(=O)c2cccc(NC(=O)c3ccco3)c2)c1C	-0.4	1.3
107	CCn1cnc2scc(-c3ccccc3)c2c1=O	-0.05	0.58
108	O=C(CCCC(=O)N(CC(=O)NC1CCCCC1)c1cccc(F)c1)Nc1ccccn1	0.8	0.64
109	CN(C)S(=O)(=O)Oc1cc(Cl)ccc1C(=O)Nc1ccc(F)cc1F	0.09	1.3
110	Cc1cc(C)c2cc(CN(Cc3nnnn3Cc3ccc(F)cc3)C3CCCC3)c(=O)[nH]c2c1	0.11	0.21
111	CCCCOC(=O)CNc1n[nH]c(=S)[nH]c1=O	-1.1	1.1
112	CCOC(=O)N1CCC(NC(=O)c2ccc(CNS(=O)(=O)c3ccc(F)cc3)cc2)CC1	0.7	1.8
113	CCn1c(SCC(N)=O)nc2c(c1=O)C1(CCCC1)Cc1ccccc1-2	-1.2	4.3
114	CC(C)CC(=O)Nc1c2c(nn1-c1ccc(F)cc1)CS(=O)(=O)C2	-0.87	0.23
115	O=C(COC(=O)/C=C/c1ccco1)NCc1ccc2c(c1)OCO2	0.1	1.1
116	Cc1cc(Oc2ccc(Cl)cc2)nc(SCC(=O)c2ccccc2)n1	0.47	3.2
117	CC(=O)Nc1ccc(NC(=O)COc2c(C)cc(Br)cc2C)cc1	0.34	0.14
118	Cc1ccc(NC(=O)CCC(=O)N/N=C/c2ccco2)c(C)c1	0.13	0.09

High-throughput results: PubChem BioAssay, Johns Hopkins Ion Channel Center
